Yeast UUG start: yeast start codon fidelity modulation | activity score, % at 18.7 µM | S. cerevisiae UUG-firefly luciferase reporter, luminescence/redox ratio | AID 602363 | 350,000 compounds, 0.13% hits;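 active means replicate mean at a twofold rise or more, about +100% in these data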;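 further: firefly luciferase made from a UUG start codon reports start codon fidelity; reporter light over untreated wells divided by growth signal over untreated wells; some hits fall short of that in this replicate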
Env fusion inh: blocks HIV Env-driven cell-cell fusion; inhibition, % at 12.3 µM; 360,000 compounds, 1.1% hits; HeLa-JRFL Env/CEM21 cell fusion, luciferase;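 active means mean replicate inhibition score of at least 50 and every replicate individually at or above 50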;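 further: 0% = plate neutral controls and 100% = maraviroc near 300 nM; one replicate is shown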
* = called active by the depositor; [ ] = dose if it differs, or a comment.

SMILES | Yeast UUG start | Env fusion inh
O=C(NCC[C@@H]1CC[C@H](NC(=O)c2ccncc2)[C@H](CO)O1)Nc1ccc(Cl)cc1 | -6 | -12[16.7 µM]
C[C@H](CO)N1C[C@H](C)[C@H](CN(C)C(=O)C2CCC2)Oc2cc(C#CC3CC3)ccc2S1(=O)=O | -2 | -10[16.7 µM]
C[C@@H]1CN([C@H](C)CO)C(=O)c2cc(NC(=O)Nc3ccc4c(c3)OCO4)ccc2O[C@@H](C)CCCCO[C@H]1CN(C)C(=O)c1ccccc1 | -3 | -9[16.7 µM]
Cc1noc(C)c1NC(=O)Nc1cccc2c1O[C@@H](CN(C)C(=O)NC(C)C)[C@H](C)CN([C@@H](C)CO)C2=O | -9 | 16[16.7 µM]
COc1cccc(NC(=O)N[C@@H]2C=C[C@@H](CC(=O)Nc3ccccc3)O[C@H]2CO)c1 | -5 | -1[16.7 µM]
C[C@@H]1CCCCO[C@@H](CN(C)S(=O)(=O)c2ccccc2)[C@@H](C)CN([C@H](C)CO)C(=O)c2cc(NC(=O)CCCCCC(=O)Nc3ccccc3N)ccc2O1 | 2 | -8[16.7 µM]
C[C@H]1CN([C@@H](C)CO)C(=O)Cc2cc(NC(=O)Cc3ccccc3)ccc2O[C@@H]1CN(C)S(=O)(=O)c1cccs1 | 29 | 10[16.7 µM]
C[C@H]1CN([C@@H](C)CO)C(=O)c2cccc(NS(=O)(=O)c3ccc(Cl)cc3)c2O[C@@H]1CN(C)S(=O)(=O)c1cccs1 | -3 | -100[16.7 µM]
COc1ccc(S(=O)(=O)Nc2ccc3c(c2)C(=O)N([C@@H](C)CO)C[C@@H](C)[C@H](CN(C)C(=O)CCC(F)(F)F)OCCCC[C@@H](C)O3)cc1 | 14 | -8[16.7 µM]
C[C@@H]1CN([C@@H](C)CO)C(=O)CCCn2cc(nn2)CO[C@@H]1CN(C)S(=O)(=O)c1ccc(F)cc1 | 4 | -23[16.7 µM]
C[C@H](CO)N1C[C@H](C)[C@@H](CN(C)Cc2ccccc2)OCCCC[C@H](C)Oc2ccc(NS(=O)(=O)c3ccc(Cl)cc3)cc2C1=O | 28 | 31[16.7 µM]
C[C@@H]1CN([C@@H](C)CO)C(=O)CCCn2cc(nn2)CO[C@H]1CN(C)C(=O)Nc1ccc(N2CCCCC2)cc1 | -7 | 1[16.7 µM]
COc1ccccc1NC(=O)N(C)C[C@H]1Oc2ncc(C#CCN(C)C)cc2C(=O)N([C@H](C)CO)C[C@@H]1C | 1 | 1[16.7 µM]
C[C@@H](O)C#Cc1ccc2c(c1)O[C@H](CN(C)C(=O)c1ccccc1)[C@@H](C)CN([C@@H](C)CO)S2(=O)=O | 11 | -15[16.7 µM]
COc1ccc(S(=O)(=O)Nc2ccc3c(c2)C(=O)N([C@@H](C)CO)C[C@H](C)[C@@H](CN(C)S(=O)(=O)c2ccc(F)cc2)OCCCC[C@@H](C)O3)cc1 | 1 | -29[16.7 µM]
C[C@@H]1CCCCO[C@@H](CN(C)C(=O)Nc2ccc(C(F)(F)F)cc2)[C@H](C)CN([C@@H](C)CO)C(=O)c2cc(NS(=O)(=O)c3ccc(F)cc3)ccc2O1 | -11 | -39[16.7 µM]
C[C@@H]1CN([C@H](C)CO)S(=O)(=O)c2ccc(-c3ccncc3)cc2O[C@H]1CN(C)C(=O)C1CCCCC1 | -1 | -2[16.7 µM]
CC(=O)Nc1ccc2c(c1)C(=O)N(C)[C@H]1CC[C@@H](CC(=O)NCC3CC3)O[C@@H]1CO2 | 9 | -16[16.7 µM]
C[C@H](CO)N1C[C@H](C)[C@H](CN(C)Cc2ccccc2)OCCCC[C@H](C)Oc2ccc(NC(=O)Nc3ccc4c(c3)OCO4)cc2C1=O | 11 | 58*[16.7 µM]
C[C@H]1CN([C@@H](C)CO)C(=O)Cc2cc(NC(=O)Cc3ccccc3)ccc2O[C@@H]1CN(C)Cc1ccccc1 | -19 | 5[16.7 µM]
Cc1ccc(S(=O)(=O)N[C@H]2CC[C@H](CCn3cc(C4CC4)nn3)O[C@H]2CO)cc1 | -2 | 17[16.7 µM]
CN1CCN(C(=O)C[C@H]2C=C[C@H](NC(=O)c3ccc4c(c3)OCO4)[C@@H](CO)O2)CC1 | -10 | 1[16.7 µM]
CNC[C@H]1OCCCC[C@H](C)Oc2ccc(NC(=O)c3ccncc3)cc2C(=O)N([C@H](C)CO)C[C@@H]1C | 6 | -1[16.7 µM]
C[C@@H]1CCCCO[C@H](CN(C)C(=O)Nc2ccc(C(F)(F)F)cc2)[C@H](C)CN([C@H](C)CO)C(=O)c2cc(NS(=O)(=O)c3cccs3)ccc2O1 | 0 | 15[16.7 µM]
C[C@H](CO)N1C[C@H](C)[C@@H](CN(C)Cc2cncnc2)Oc2cc(-c3ccccc3)ccc2S1(=O)=O | -14 | 25[16.7 µM]

Copied from the list.
Env fusion inh result of COc1cccc(NC(=O)N[C@@H]2C=C[C@@H](CC(=O)Nc3ccccc3)O[C@H]2CO)c1 → -1[16.7 µM]
Yeast UUG start result of C[C@@H]1CCCCO[C@@H](CN(C)S(=O)(=O)c2ccccc2)[C@@H](C)CN([C@H](C)CO)C(=O)c2cc(NC(=O)CCCCCC(=O)Nc3ccccc3N)ccc2O1 → 2

5 of the compounds above, with tabs.
molecule	Yeast UUG start	Env fusion inh
C[C@@H]1CCCCO[C@@H](CN(C)C(=O)Nc2ccc(C(F)(F)F)cc2)[C@H](C)CN([C@@H](C)CO)C(=O)c2cc(NS(=O)(=O)c3ccc(F)cc3)ccc2O1	-11	-39[16.7 µM]
C[C@@H]1CN([C@H](C)CO)S(=O)(=O)c2ccc(-c3ccncc3)cc2O[C@H]1CN(C)C(=O)C1CCCCC1	-1	-2[16.7 µM]
CC(=O)Nc1ccc2c(c1)C(=O)N(C)[C@H]1CC[C@@H](CC(=O)NCC3CC3)O[C@@H]1CO2	9	-16[16.7 µM]
C[C@H](CO)N1C[C@H](C)[C@H](CN(C)Cc2ccccc2)OCCCC[C@H](C)Oc2ccc(NC(=O)Nc3ccc4c(c3)OCO4)cc2C1=O	11	58*[16.7 µM]
C[C@H]1CN([C@@H](C)CO)C(=O)Cc2cc(NC(=O)Cc3ccccc3)ccc2O[C@@H]1CN(C)Cc1ccccc1	-19	5[16.7 µM]

Going on with the list:
SMILES | Yeast UUG start | Env fusion inh
CNC[C@H]1OCCCC[C@@H](C)Oc2ccc(N)cc2C(=O)N([C@H](C)CO)C[C@@H]1C | -5 | 12[16.7 µM]
CCCC#Cc1cnc2c(c1)C(=O)N([C@H](C)CO)C[C@@H](C)[C@H](CN(C)C(=O)C1CCC1)O2 | 9 | 10[16.7 µM]
COc1cccc(-c2cnc3c(c2)C(=O)N([C@H](C)CO)C[C@H](C)[C@H](CN(C)C(=O)Nc2ccc4c(c2)OCO4)O3)c1 | 19 | 12[16.7 µM]
CCC(=O)Nc1ccc2c(c1)C(=O)N(C)[C@@H]1CC[C@H](CC(=O)NCC3CCCCC3)O[C@H]1CO2 | 16 | 3[16.7 µM]
CCCc1cn(CC[C@@H]2CC[C@H](NC(=O)C3CCCC3)[C@H](CO)O2)nn1 | 24 | -2[16.7 µM]
COc1ccc(NC(=O)N(C)C[C@H]2OCCCC[C@@H](C)Oc3ccc(NC(=O)CCC(F)(F)F)cc3C(=O)N([C@@H](C)CO)C[C@@H]2C)cc1 | 25 | -56[16.7 µM]
C[C@@H]1CN([C@@H](C)CO)C(=O)Cc2cc(NC(=O)Cc3ccccc3)ccc2O[C@H]1CN(C)C(=O)NC1CCCCC1 | 7 | 11[16.7 µM]
Cc1noc(C)c1NC(=O)N(C)C[C@H]1OCCCC[C@@H](C)Oc2ccc(NC(=O)CCC(F)(F)F)cc2C(=O)N([C@@H](C)CO)C[C@H]1C | -5 | 5[16.7 µM]
C[C@H]1CN([C@@H](C)CO)C(=O)c2cccc(NC(=O)Nc3ccc(C(F)(F)F)cc3)c2O[C@H]1CN(C)C(=O)Nc1ccc2c(c1)OCO2 | 23 | -33[16.7 µM]
COc1ccc(CN(C)C[C@H]2OCCCC[C@@H](C)Oc3ccc(NC(=O)Nc4c(C)noc4C)cc3C(=O)N([C@H](C)CO)C[C@H]2C)cc1 | 35 | -61[16.7 µM]
O=C(C[C@@H]1C[C@@H]2c3cc(NC(=O)CC4CC4)ccc3O[C@@H]2[C@H](CO)O1)NCCN1CCCCC1 | 6 | -16[16.7 µM]
CC(C)NC(=O)N(C)C[C@@H]1Oc2ccc(NC(=O)Nc3ccc(F)cc3)cc2CC(=O)N([C@H](C)CO)C[C@H]1C | -7 | 17[16.7 µM]
CC(C)NC(=O)N(C)C[C@@H]1Oc2ccc(NC(=O)c3ccncc3)cc2C(=O)N([C@H](C)CO)C[C@H]1C | -8 | -17[16.7 µM]
O=C(C[C@@H]1CC[C@H]2[C@@H](COC[C@@H](O)CN2C(=O)c2ccc(F)cc2)O1)NC1Cc2ccccc2C1 | 0 | 67*[16.7 µM]
C[C@@H]1CN([C@H](C)CO)C(=O)c2cccc(NS(=O)(=O)c3ccc(F)cc3)c2O[C@H]1CN(C)C(=O)Nc1ccccc1 | 2 | 24[16.7 µM]
C[C@H](O)C#Cc1ccc2c(c1)O[C@H](CN(C)Cc1cccnc1)[C@@H](C)CN([C@H](C)CO)S2(=O)=O | 0 | -9[16.7 µM]
CC(C)NC(=O)N(C)C[C@@H]1Oc2ccc(NC(=O)C3CCCCC3)cc2C(=O)N([C@H](C)CO)C[C@H]1C | 1 | 25[16.7 µM]
COc1ccc(NC(=O)Nc2ccc3c(c2)C(=O)N([C@H](C)CO)C[C@@H](C)[C@H](CN(C)Cc2ccccc2)OCCCC[C@H](C)O3)cc1 | 9 | 8[16.7 µM]
C[C@@H]1CN([C@H](C)CO)C(=O)c2cc(-c3cncnc3)cnc2O[C@H]1CN(C)Cc1ccncc1 | -4 | 6[16.7 µM]
COc1ccc(S(=O)(=O)Nc2ccc3c(c2)C(=O)N([C@@H](C)CO)C[C@H](C)[C@H](CN(C)S(=O)(=O)c2ccc(F)cc2)OCCCC[C@H](C)O3)cc1 | 5 | 15[16.7 µM]
CC(C)CC#Cc1cnc2c(c1)C(=O)N([C@@H](C)CO)C[C@@H](C)[C@@H](CN(C)C(=O)CN1CCOCC1)O2 | 4 | 10[16.7 µM]
C[C@H](CO)N1C[C@H](C)[C@H](CN(C)C(=O)Nc2ccc3c(c2)OCO3)OCCCC[C@H](C)Oc2ccc(NS(=O)(=O)c3ccc(F)cc3)cc2C1=O | -9 | 5[16.7 µM]
C[C@@H]1CN([C@H](C)CO)C(=O)c2cc(NS(=O)(=O)c3ccc(Cl)cc3)ccc2O[C@H]1CN(C)CC1CC1 | 32 | -12[16.7 µM]
C[C@H](CO)N1C[C@H](C)[C@@H](CN(C)Cc2ccncc2)Oc2ccc(NC(=O)c3ccncc3)cc2CC1=O | 2 | 15[16.7 µM]
CCCNC(=O)Nc1ccc2c(c1)C(=O)N(C)[C@@H]1CC[C@H](CC(=O)NC)O[C@@H]1CO2 | -11 | -9[16.7 µM]

Following part.
SMILES | Yeast UUG start | Env fusion inh
C[C@@H]1CN([C@@H](C)CO)C(=O)c2cc(NC(=O)CCCN(C)C)ccc2O[C@@H](C)CCCCO[C@H]1CN(C)C(=O)Nc1ccc2c(c1)OCO2 | 7 | -3[16.7 µM]
O=C(Nc1ccc2c(c1)OCO2)N[C@H]1CC[C@H](CC(=O)N2CCN(c3ccccc3)CC2)O[C@H]1CO | 8 | -8[16.7 µM]
Cc1noc(C)c1NC(=O)Nc1ccc2c(c1)C(=O)N([C@@H](C)CO)C[C@@H](C)[C@H](CN(C)S(=O)(=O)c1c(C)noc1C)OCCCC[C@@H](C)O2 | 7 | -13[16.7 µM]
C[C@H]1CN([C@@H](C)CO)S(=O)(=O)c2ccc(C#Cc3ccccc3)cc2O[C@H]1CN(C)C(=O)Cc1ccccn1 | 2 | 15[16.7 µM]
COC(=O)C[C@H]1C[C@@H]2c3cc(NC(=O)Cc4ccncc4)ccc3O[C@@H]2[C@@H](CO)O1 | -17 | -9[16.7 µM]
C[C@@H]1CCCCO[C@H](CN(C)Cc2ccncc2)[C@H](C)CN([C@@H](C)CO)C(=O)c2cc(N(C)C)ccc2O1 | -2 | 3[16.7 µM]
COc1ccc(S(=O)(=O)N(C)C[C@@H]2Oc3c(NC(=O)C4CC4)cccc3C(=O)N([C@@H](C)CO)C[C@@H]2C)cc1 | -2 | -45[16.7 µM]
C[C@@H]1CN([C@H](C)CO)S(=O)(=O)c2ccc(-c3cccnc3)cc2O[C@H]1CN(C)C | -22 | 9[16.7 µM]
CCC(=O)N(C)C[C@H]1Oc2cc(C#CC3CCCCC3)ccc2S(=O)(=O)N([C@@H](C)CO)C[C@@H]1C | 2 | 2[16.7 µM]
COc1ccc(NC(=O)N(C)C[C@H]2OCCCC[C@H](C)Oc3ccc(NS(=O)(=O)c4ccc(Cl)cc4)cc3C(=O)N([C@@H](C)CO)C[C@H]2C)cc1 | 15 | -1[16.7 µM]
Cc1ccc(S(=O)(=O)Nc2cccc3c2O[C@@H](CN(C)C(=O)Nc2c(C)noc2C)[C@@H](C)CN([C@@H](C)CO)C3=O)cc1 | -1 | -4[16.7 µM]
COCC(=O)N(C)C[C@@H]1Oc2cc(C#C[C@H](C)O)ccc2S(=O)(=O)N([C@H](C)CO)C[C@H]1C | 15 | -3[16.7 µM]
COCCNC(=O)C[C@H]1C[C@@H]2c3cc(N(C)C)ccc3O[C@@H]2[C@H](CO)O1 | -17 | -9[16.7 µM]
C/C=C/c1ccc2c(c1)O[C@H](CN(C)Cc1ccccc1)[C@H](C)CN([C@H](C)CO)S2(=O)=O | -4 | 1[16.7 µM]
CNC[C@@H]1Oc2ccc(NS(=O)(=O)c3ccc(OC)cc3)cc2CC(=O)N([C@@H](C)CO)C[C@H]1C | -9 | 10[16.7 µM]
CC(=O)N(C)C[C@H]1Oc2cc(-c3ccccc3F)ccc2S(=O)(=O)N([C@H](C)CO)C[C@@H]1C | -2 | -9[16.7 µM]

Screens from PubChem.

Not all compounds are listed; rates above refer to the full screens.
